Source: PubChem BioAssay
NPYLR7 ag = mosquito NPYLR7 agonism; HEK293T NPYLR7/Galpha15, GCaMP6s calcium fluorescence; activation, % at 10 µM; actives 0.15% (n = 270,000); AID 1259423; in the data active = activation above about 40%;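 note: 0% = vehicle and 100% = reference agonist at the receptor; some compounds past the cut are filed as inactive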
NPYLR7 ag max-min = recorded beside NPYLR7 ag, whose call it bears; activation, %; measured here: Max-Min RFU normalised activation; some inactives read as strong as hits;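 span of the calcium signal over five minutes; 0% = vehicle and 100% = native peptide agonist; compound fluorescence can raise it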
Numbers without * were called inactive; & = joins results of further samples. An excerpt; rates above refer to the full screens.

Values run as follows: NPYLR7 ag max-min, NPYLR7 ag
- O=C(Nc1ccc(N2CCC(Cc3ccccc3)CC2)c(C(=O)NCC2CCCO2)c1)c1cccc([N+](=O)[O-])c1 (stereo not given)
→ 6, -4
- CCc1cnc(C)nc1N1CCN(C(C)C)C(CC)C1 (stereo not given)
→ 5, 8
- O=C(Nc1cccc(O)c1)c1cc(S(=O)(=O)N2CCCC2)ccc1Cl
→ -11, -6
- CC1CCC(C(C)C)c2[nH]nc(-c3ccccc3O)c21 (stereo not given)
→ -10, -11
- Cc1cc(C(=O)NC(C)c2ccccc2C)no1 (stereo not given)
→ -1, 1
- CCOC(=O)N1CCC(NC(=O)Cc2c(C)nc(SCc3ccccc3)[nH]c2=O)CC1
→ -12, -6
- O=S(=O)(NCc1cccnc1)c1ccc(Cl)cc1
→ -11, -5
- CC(NCc1cn(CCC(N)=O)c2ccccc12)c1nc2c(s1)CCCC2 (stereo not given)
→ 8, 18
- COc1cccc(CC(C2CCN(C(=O)c3ccsc3)CC2)N(C)C(=O)CCSC)c1 (stereo not given)
→ 8, 16
- C=C(C)CN(CC)C(=O)CCc1c(C)nn(C)c1C
→ -6, -5
- Cc1ccccc1C(=O)Nn1cnc2c(cnn2C(C)(C)C)c1=O
→ 0, 5
- CCc1ccc(CN2CCN(Cc3ccccc3F)C(CCO)C2)cc1 (stereo not given)
→ -7, -6
- Cc1nc(SCc2ccc(C(=O)NCCN(C)C)cc2)nc(N2CCN(C/C=C/c3ccccc3)CC2)c1C
→ 10, 5
- COC(=O)C(C)N1CCOc2c(O)cc(-c3cccc(Cl)c3)cc2C1 (stereo not given)
→ 2, 5
- COCc1cccc(CNC(=O)c2ccc(C#N)cc2)c1
→ -3, 0
- COc1ccc(Cl)cc1Cn1c(C)c(C(=O)NCc2ccc(C(C)C)cc2)sc1=O
→ 3, -2
- CC(C)CNc1nnnc2c1sc1nc(N3CCOCC3)c3c(c12)CC(C)(C)OC3
→ 6, 13
- CCc1csc(CNC(=O)c2ccc(N3[C@H]4CCNC[C@@H]3CC4)nc2)n1
→ 3, 4
- CCN(CC)CC1CCN(C(=O)Nc2ccc(C(=O)OC)cc2)CC1
→ -1, 0
- Cc1cnc(-c2c(-c3ccccc3)ncn2CCCc2ccncc2)[nH]1
→ 6, 19
- CCSc1nc(CC(=O)NC(C)c2ncn[nH]2)cs1 (stereo not given)
→ -9, -10
- CC1CCc2c(sc(NC(=O)c3noc4c3CCCC4)c2C(N)=O)C1 (stereo not given)
→ 2, 3
- Cc1cc(C)cc(C(O)c2ncc(-c3ccc(C(F)(F)F)cc3)[nH]2)c1 (stereo not given)
→ 3, 1
- COc1ccccc1NC(=S)NC(=O)c1ccc(Br)o1
→ 6, 8
- O=c1sc2ccccc2n1Cc1n[nH]c(=S)n1CCc1ccccc1
→ -5, 6
- Cc1cc(C)nc(N2CC3ON=C(c4ccccc4)C3C2)n1 (stereo not given)
→ 4, 7
- CCCCCn1c(SCc2ccccn2)nc2cc(C(=O)N3CCCC3)ccc2c1=O
→ -1, -1
- CC(O)CCN(C)C(=O)C(=O)Nc1cccc(Cl)c1S(C)(=O)=O (stereo not given)
→ 0, 3
- CC1=CCN(S(=O)(=O)c2ccccc2)S(NS(=O)(=O)c2ccccc2)=C1 (stereo not given)
→ 4, 6
- Cc1ccc(S(=O)(=O)N2CCC(C(=O)NCC(c3cccs3)N(C)C)CC2)c(C)c1 (stereo not given)
→ -7, -6
- CC(C)Cc1cc(C(=O)N2CCn3cncc3C2)nc(=O)[nH]1
→ 13, 25
- O=C(OCCc1ccc(F)cc1)C1CCCN(C(=O)C2CC2)C1 (stereo not given)
→ 2, 4
- CCOc1ccccc1-c1cc(NC)ncn1
→ -3, -3
- O=C(c1ccc(Br)cc1)N1CCC(C(=O)N2CCCCCC2)CC1
→ 3, 4
- CNC(=O)C(C)S(=O)(=O)Cc1ccn(-c2cccc(F)c2)n1 (stereo not given)
→ 3, 6
- CC(=O)Nc1cccc(-n2c(C)nnc2SCc2ccccc2C#N)c1
→ -5, -4
- CC(=O)NS(=O)(=O)c1ccc(N=CC(C#N)c2nc3ccccc3n2C)cc1 (stereo not given)
→ -5, -1
- CCCC(NC(=O)c1cccc(-n2cnnc2)c1)c1ccccc1 (stereo not given)
→ -7, -4
- CCCCCCCCn1c(O)c(C=NC2CCS(=O)(=O)C2)c(=O)[nH]c1=S (stereo not given)
→ 2, 2
- Cc1ccc(C(=O)N=Nc2c(O)n(C)c3ccccc23)cn1
→ 0, -5
- CN(CCn1cccn1)c1cc(C#N)c2ccccc2n1
→ -3, 2
- O=C(NC(C(=O)N1CCCCC1)C1CCN(C(=O)Nc2cccc(Cl)c2)CC1)c1ccccc1Cl (stereo not given)
→ -12, -14
- CC(C)CN1CC(c2ncc(-c3cccnc3)[nH]2)CC1=O (stereo not given)
→ -3, -1
- CCc1ccccc1NC(=O)NCCOc1cc(N2CCN(C)CC2)ncn1
→ 0, 0
- COc1ccc(NC(=O)CNC(=O)CN(C(=O)c2cccc(Cl)c2)C2CC2)cc1
→ 30, 24
- Fc1cccc(F)c1CN1CCCn2cccc2C1c1ccccc1Cl (stereo not given)
→ 17, 3
- Cc1cccc(CSc2nnc(Cn3c(=O)sc4ccccc43)n2C)c1
→ 6, 5
- O=C(O)C1CC(=O)N(CCc2cccnc2)C1 (stereo not given)
→ -14, 2
- COc1ccccc1N1CCN(Cc2ncccc2C(=O)O)CC1
→ 22, -1
- Cc1ccc(CN(C)C(=O)c2cc(COc3ccc(-n4cncn4)cc3)on2)o1
→ -3, 3
- CCOC(=O)C1=CS/C(=C2/C(=S)C(C)(C)Nc3c(OCC)cccc32)S1
→ -3, -1
- CC(=O)Nc1ccc(S(=O)(=O)Nc2nc3ccccc3nc2Nc2ccc3c(c2)OCO3)cc1
→ -7, -4
- CCC(COC)NC(=O)c1cncn1-c1ccc(-c2cc(C(F)(F)F)cc(C(F)(F)F)c2)cc1 (stereo not given)
→ 2, 5
- COc1cc(Cl)c(S(=O)(=O)NCCCn2ccnc2)cc1Cl
→ 10, -1
- CCCCC(=O)NCc1nnc(SCc2ccccc2C)n1-c1ccc([N+](=O)[O-])cc1
→ 15, 4
- O=S1(=O)CCN2C(=N1)Sc1cc(Cl)ccc12
→ -5, -4
- COc1ccc(NC(=O)N2CC(=O)N3CCc4cc(OC)c(OC)cc4C3C2)cc1 (stereo not given)
→ 9, -7
- Cc1ccc2cc(C3CC(=O)Nc4[nH]ncc43)c(N3CCOCC3)nc2c1 (stereo not given)
→ 0, 0
- CCOc1ncccc1CNC(=O)c1nn(-c2ccc(C)cc2C)nc1C
→ -2, -2
- Cc1cc(C)c2c(c1C(=O)N[C@H]1CCCCNC1=O)CC(C)(C)C2=O
→ -9, -6

Next section:
Values run as follows: NPYLR7 ag max-min, NPYLR7 ag
- COc1ccc(Nc2nc(N)c([N+](=O)[O-])c(NCCO)n2)cc1
→ -1, 0
- CCSc1nnc(NC(=O)CSc2nnc(CNC(=O)Cc3ccccc3)n2-c2c(CC)cccc2CC)s1
→ -1, -7
- C=CCn1c(N2CCN(CCc3ccccc3)CC2)nc2c1c(=O)[nH]c(=O)n2C
→ 10, 11
- O=S(=O)(Nc1ccc2c(c1)OCCO2)c1cccc2cccnc12
→ 3, -1
- CCN(C(=O)C1CCN(c2ccc(C(F)(F)F)cn2)CC1)c1ccccc1Cl
→ 0, 1
- CCN(CC)c1c(C)nc2ccc(C(=O)N(C)C(C)C)cn12
→ -9, -5
- COc1cccc(Nc2nc(C(N)CC(C)C)cs2)n1 (stereo not given)
→ -13, -7
- Cc1cc(C)cc(N2CCCn3c2nc2c3c(=O)n(Cc3cc(C)ccc3C)c(=O)n2C)c1
→ -2, 0
- CCOC(=O)C1(C)CCCCCN1C(=O)c1ccccc1OC (stereo not given)
→ -7, -2
- CC1CCc2c(sc(N)c2C(=O)OC(C)C)C1 (stereo not given)
→ -20, -12
- COc1cccc2c1OC(=O)C1C3CC(C4Sc5[nH]c(=O)sc5C2C34)C1C(=O)O (stereo not given)
→ -1, 2
- O=c1[nH]ncc(Sc2ncccn2)c1Cl
→ 5, 10
- Cc1ccc2cc(C(=O)N3CCCN(CC(N)=O)CC3)c(C)nc2c1
→ -28, -26
- Cn1c(=O)c2c(nc(N3CCC(Cc4ccccc4)CC3)n2CCSc2ncccn2)n(C)c1=O
→ -1, 4
- O=C(O)c1ccc2n[nH]nc2c1
→ -3, 0
- CC1CCN(c2nc3c(c(=O)n(C)c(=O)n3C)n2CCSc2nc3ccccc3s2)CC1
→ 25, 2
- CCCCCCCCCC(=O)N1CCc2nc(Cc3ccccc3C)[nH]c(=O)c2C1
→ 8, -1
- Cc1nn(C)c(Cl)c1S(=O)(=O)N[C@@H]1CC[C@@H](N)C1
→ 14, 23
- O=c1c(-c2ccccc2)[n+]([O-])c2ccccc2n1OCc1ccc(Br)cc1
→ -2, 8
- Cn1cnnc1SCc1c(Cl)cccc1Cl
→ 0, 1
- CC1(NC(=O)CSc2nc3c(Cl)cc(Cl)cc3[nH]2)CCS(=O)(=O)C1 (stereo not given)
→ 1, 2
- O=C(Cn1nc(-c2ccc(F)cc2)c2sc(N3CCCC3)nc2c1=O)NC1CCCC1
→ -8, -5
- CCCSc1nc2c([nH]c3ccccc32)c(=O)n1CCOC
→ 0, 1
- CC(C)CN1CCC(C(=O)NCC2CCN(c3ccc(Cl)cc3)C2)CC1 (stereo not given)
→ 1, 2
- CCCCCCCCCCCCCCCC[n+]1ccccc1
→ -10&-8, -6&-3
- NC(=O)c1cccc(COc2cc(Cl)cc(Cl)c2)c1
→ 0, -1
- O=C1N=c2ccccc2=C1c1sc(=S)n(-c2ccccc2)c1O
→ -20, -10
- CCCCc1ccc(C(=O)Nc2c(-c3ccc(C)cc3)nc3ccccn23)cc1
→ 1, -2
- c1ccc(C2CCCN(Cc3cc4n(n3)CCNC4)CC2)cc1 (stereo not given)
→ 9, 11
- Cc1ccc(C(OC(=O)c2ccc(C#N)cc2)C(F)(F)F)cc1 (stereo not given)
→ 6, 9
- Cc1cc(NC(=O)C(=O)N(C)Cc2cnn(-c3ccccc3C)c2)no1
→ -1, 10
- COc1ccc(OC)c(NC(=O)N(C)Cc2ccc(Cl)cc2)c1
→ 2, 4
- CCOC(=O)C1CCN(CC(=O)N2N=C(c3ccc(OC)cc3OC)CC2c2ccc(F)cc2)CC1 (stereo not given)
→ 7, 2
- c1csc(-c2noc(CN3CCc4sccc4C3)n2)c1
→ -8, -2
- COc1ccc(Cl)cc1C1(CNc2ncccn2)CCOCC1
→ -2, -4
- CCOC(=O)N1CCN(C(=O)c2csc(CSc3nnc(-c4cccc(OC)c4)n3-c3ccccc3)n2)CC1
→ 18, 20
- CCn1cncc1CNC(=O)[C@H]1C[C@@](C)(C(=O)O)N(C)[C@H]1c1ccccc1
→ 1, 5
- COc1cccc([C@@H]2CCN(Cc3ccc(NC(C)=O)cc3)C[C@H]2O)c1
→ 4, 6
- NS(=O)(=O)c1ccc(Br)s1
→ 2, 4
- CC(=O)NCCc1cn(-c2ccc3c(c2)CCCN3C(C)=O)cn1
→ 5, 8
- CN1CC(=O)N2C[C@@H](NC(=O)[C@@H]3Cc4ccccc4N3)C[C@H]2C1=O
→ 18, 17
- Cc1ccc(-n2nc(C(=O)NCC3CC3)c(=O)n(Cc3ccc(C(F)(F)F)cc3)c2=O)cc1Cl
→ 10, 8
- Cc1ccn2c(NC(C)(C)CC(C)(C)C)c(-c3ccc(OC(=O)c4ccc(C(C)(C)C)cc4)cc3)nc2c1
→ 15, 14
- COC(=O)C1CCN(C(c2cccc(C)c2)C2Sc3nc(C)nn3C2=O)CC1 (stereo not given)
→ -1, 0
- Cc1nn(C)c(C)c1C(C)NC(=O)c1cc(-n2cccn2)ccc1Cl (stereo not given)
→ 3, 3
- CC(Sc1nnc(N)s1)C(=O)NC1CCCCC1C (stereo not given)
→ 0, 2
- CCC(CC)NCC(c1ccccn1)N1CCOCC1 (stereo not given)
→ 11, 26
- CCN1C(=O)/C(=C/N(C(C)=O)c2ccccc2)SC1=S
→ -6, -2
- CNC(=S)N1CCN(c2ncccn2)CC1
→ 14, 19
- O=C(COc1ccc(F)cc1)Nn1c(-c2ccco2)n[nH]c1=S
→ 1, 4
- CC1(C)C2CCC1(CS(=O)(=O)N(CCCN1CCOCC1)CC(=O)N(Cc1ccc(F)cc1)Cc1ccco1)C(=O)C2 (stereo not given)
→ 0, -3
- CCCn1cnnc1CNC(=O)c1oc2cc(OC)ccc2c1C
→ -7, -5
- Cc1csc(NC(=O)CSc2nc(=O)n(CCCN(C)C)c3c2CCC3)n1
→ 2, 3
- OCc1ccc(-c2nccn2CCc2cnn(-c3ccccc3)c2)o1
→ 0, 5
- Cc1ccc(C=CC(=O)c2ccc(I)cc2)o1
→ 11, 6
- Cc1cc(NCCN(C)C)n2nc(C(F)(F)F)c(-c3ccc(Cl)cc3)c2n1
→ -6, -1
- CCCn1cnc(NC(=O)NCCC2CCCCCC2)n1
→ 15, 0
- CC(=O)N(C)c1ccc(N=Nc2c(C)[nH]n(-c3nc(-c4ccc(Br)cc4)cs3)c2=O)cc1
→ -1, 2
- COCCN(CC(F)F)S(=O)(=O)c1ccc(Cl)cc1C#N
→ 0, 0
- CNC(=O)c1ccccc1NC(=O)c1ccc2c(c1)CCCC2
→ 3, 2

Quoted at random: 5 records from the list.
Values run as follows: NPYLR7 ag max-min, NPYLR7 ag
- CC1(C)C2CCC1(CS(=O)(=O)N(CCCN1CCOCC1)CC(=O)N(Cc1ccc(F)cc1)Cc1ccco1)C(=O)C2 (stereo not given)
→ 0, -3
- O=C(COc1ccc(F)cc1)Nn1c(-c2ccco2)n[nH]c1=S
→ 1, 4
- CCN1C(=O)/C(=C/N(C(C)=O)c2ccccc2)SC1=S
→ -6, -2
- COC(=O)C1CCN(C(c2cccc(C)c2)C2Sc3nc(C)nn3C2=O)CC1 (stereo not given)
→ -1, 0
- c1csc(-c2noc(CN3CCc4sccc4C3)n2)c1
→ -8, -2

Compound profiles, from the list above:
`COCCN(CC(F)F)S(=O)(=O)c1ccc(Cl)cc1C#N` is entered as NPYLR7 ag max-min = 0; NPYLR7 ag = 0
`CCCn1cnc(NC(=O)NCCC2CCCCCC2)n1` is entered as NPYLR7 ag max-min = 15; NPYLR7 ag = 0
